Mtb H37Rv – M. tuberculosis H37Rv growth inhibitors, H37Rv strain (AID 1626); one-dose inhibition, % at 10 µM; IC50 in µM for titrated hits; 0.95% of 220,000 active; M. tuberculosis H37Rv growth inhibition; higher % means a stronger effect;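 active = confirmed in a dose series; inconclusive = inhibition above 80% but not taken into the dose series; inactive = below 80% or under 30% at every dose of the series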;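 also: bacteria incubated seven days before Alamar blue readout; 0% = bacteria only wells and 100% = bacteria with antibiotic wells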
Mtb bLac sens – beta-lactam sensitization of Mtb H37Rv. M. tuberculosis H37Rv growth with meropenem, percent inhibition; hits of this screen are not shown here. 0.27% of 330,000 active. inhibition, % at 25 µM;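 active = about 74% or more and at least 40 points above the plate without the antibiotic, then above 30% in a dose series; inconclusive = first-round hits that could not be retested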;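 also: growth measured after seven days incubation then overnight dye step; 0% = bacteria only wells and 100% = bacteria with antibiotic; twin plates without the antibiotic show which effects depend on it; some results filed as inactive read as strong as hits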
Arbovirus inh – antivirals against arbovirus infection; AID 1251; arbovirus infection cell-based antiviral screen; 0.37% of 200,000 active; inhibition, % at 10 µM;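 active = inhibition from about 30%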;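 also: bluetongue infection of BSR cells; cell survival read as ATP light after 72 h; 0% = infected wells without compound and 100% = uninfected wells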
RecA intein inh – inhibitors of M. tuberculosis RecA intein splicing. cell-free RecA intein splicing, fluorescence. P9WHJ3. 0.75% of 290,000 active. inhibition, %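 (about 9 µM by stock and volumes)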; in the data active = inhibition above about 30%; inconclusive = no clear call, values can overlap the other calls;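 also: 0% = vehicle wells and 100% = reference inhibitor control wells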
Target sequence (P9WHJ3 whole entry, looked up): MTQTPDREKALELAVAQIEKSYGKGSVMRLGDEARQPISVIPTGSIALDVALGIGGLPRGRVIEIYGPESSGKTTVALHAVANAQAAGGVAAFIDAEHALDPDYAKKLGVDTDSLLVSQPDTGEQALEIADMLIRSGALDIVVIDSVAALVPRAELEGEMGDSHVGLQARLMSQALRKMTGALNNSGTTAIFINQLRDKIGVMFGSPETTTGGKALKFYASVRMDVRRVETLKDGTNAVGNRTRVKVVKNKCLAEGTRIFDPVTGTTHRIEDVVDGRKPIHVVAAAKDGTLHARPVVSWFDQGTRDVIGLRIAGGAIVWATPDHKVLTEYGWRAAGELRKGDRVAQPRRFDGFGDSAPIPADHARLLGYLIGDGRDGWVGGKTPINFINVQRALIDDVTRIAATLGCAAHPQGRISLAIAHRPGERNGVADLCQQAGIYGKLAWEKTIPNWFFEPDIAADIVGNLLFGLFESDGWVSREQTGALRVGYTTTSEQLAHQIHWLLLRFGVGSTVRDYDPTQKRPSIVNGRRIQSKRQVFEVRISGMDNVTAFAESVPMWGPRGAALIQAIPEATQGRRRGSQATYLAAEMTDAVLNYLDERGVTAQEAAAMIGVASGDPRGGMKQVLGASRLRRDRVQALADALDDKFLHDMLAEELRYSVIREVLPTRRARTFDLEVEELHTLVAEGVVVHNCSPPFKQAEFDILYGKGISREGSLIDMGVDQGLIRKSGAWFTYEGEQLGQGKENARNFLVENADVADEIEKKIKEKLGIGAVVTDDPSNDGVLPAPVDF
YopH inh – inhibitors of Yersinia enterocolitica YopH tyrosine phosphatase. fluorescence Ex485/Em525. AID 898. inhibition, %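 (about 10 µM by stock and volumes)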. 0.16% of 140,000 active;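 active = inhibition of 50% or more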;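 also: controls were vehicle for no effect and minimum signal wells for full effect; inactives centre near -20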
Arbovirus inh repeat – recorded beside Arbovirus inh, whose call it bears; inhibition, %; measured here: 10K subset replicate screen; many hits read low in the repeat;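 first of two repeat runs on a subset; 0% = infected and 100% = uninfected wells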
Active calls of the source: *; ? = inconclusive; · = no result given; & = joins results of further samples. A portion of the library, so the mix of outcomes need not match the whole.

SMILES	Mtb H37Rv	Mtb bLac sens	Arbovirus inh	RecA intein inh	YopH inh	others
CCn1cc(CN2CCCC(C(=O)Nc3cccc(-n4cccn4)c3)C2)c(C)n1 (centres undefined)	·	-9.0	·	3.6	·
CCOC(=O)CNC(=O)Cn1cnc2c(nnn2-c2ccc(OC)cc2)c1=O	·	1.0	·	-0.2	·
CC(C)(C)n1nc(C2CC2)cc1NC(=O)Nc1ccc(Cl)cc1	-19.5%	3.8	·	-2.0	·
Cc1nc2nc(-c3ccccc3)nn2c(C)c1Cl	-6.4%	-13.5	·	-0.3	-16.8
Cc1cc(S(=O)(=O)NCC(C)C)ccc1OCC(=O)N1CCOCC1	2.2%	-5.9	5.2	0.3	13.8
Clc1nc(Nc2ccccc2)nc(Nc2ccccc2)n1	13.1%	10.6	-3.6	0.5	-24.4
Cc1csc(SCCn2c(N3CCCC3)nc3c2c(=O)[nH]c(=O)n3C)n1	-3.5%	-3.6	4.6	-3.0	-9.5
CCOC(=O)C1=C(CN2CCN(CCC#N)CC2)NC(=O)NC1c1ccc2c(c1)OCO2 (centres undefined)	-0.6%	-9.1	0.5	-3.3	·
CCOC(=O)CSC1=Nc2ccccc2C2=NC(CC(=O)NCc3ccccc3)C(=O)N12 (centres undefined)	-3.1%	3.6	6.5	-3.6	-19.4
COCCNC(=O)[C@H](CSCc1ccccc1)N1Cc2ccccc2C1=O	-2.5%	-4.0	·	-0.4	·
O=C(NNC(=S)NC1CCCCC1)c1ccc2c(c1)OCO2	2.1%	4.5	8.6	5.5	-7.0
COc1ccc(-c2nc(CS(=O)CC(=O)N3CCCC3)c(C)o2)cc1 (centres undefined)	5.1%	-2.5	1.4	1.2	-21.3	Arbovirus inh repeat=1.6
O=C(NCc1ccccc1)c1ccc(OC2CSC2)cc1	-1.9%	5.5	-0.1	-0.9	13.2
CCc1cc2c(=O)c(-c3ccc4c(c3)OCCO4)coc2cc1OC(=O)c1ccco1	-11.4%	11.8	5.6	4.3	2.9
COc1cc(CN2CCNC(=O)C2CC(=O)NCCCC2CCCC2)cc(OC)c1 (centres undefined)	·	-5.0	·	1.8	·
O=C(O)CCC(=O)Nc1ccc(OCC(=O)O)cc1	-4.7%	-7.0	5.4	1.3	-0.3
CCCCSc1nnc([C@@H]2CCCN2C(=O)OC(C)(C)C)o1	-0.2%	-8.6	6.2	0.6	12.8
O=C(CCc1nc2ccccc2[nH]1)Nc1ccccc1	4.0%	-3.8	6.7	1.5	-27.0
COc1ccc(CCN=C(N)NS(=O)(=O)c2ccc(C)cc2)cc1	4.4%	4.7	4.6	-1.3	-22.0
CC1CCCCN1S(=O)(=O)c1ccccc1[N+](=O)[O-] (centres undefined)	-3.3%	-3.1	4.5	-2.0	-34.7
CCOC(=O)/C(C#N)=C/Nc1cc(F)ccc1C	2.4%	-7.2	·	0.5	·
Cc1cc(OCC(=O)NCc2cccnc2)c2c3c(c(=O)oc2c1)CCCC3	·	-6.8	·	-0.1	·
O=C(O)c1ccc(/C=C2\SC(=S)N(NC(=O)c3ccccc3)C2=O)cc1	·	-3.4	·	-0.8	·
CS(=O)(=O)Nc1cccc(C2=NN(S(=O)(=O)c3ccccc3)C(c3cccs3)C2)c1 (centres undefined)	0.5%	2.8	-3.5	6.6	-7.3
Cc1cc(C)n(CC(=O)n2c3ccccc3c3ccccc32)n1	1.3%	-2.0	-5.3	-1.4	-41.8	Arbovirus inh repeat=-5.0

3 structures from above, sorted by molecular weight, ascending:
SMILES	Mtb H37Rv	Mtb bLac sens	Arbovirus inh	RecA intein inh	YopH inh	others
O=C(CCc1nc2ccccc2[nH]1)Nc1ccccc1	4.0%	-3.8	6.7	1.5	-27.0
Cc1cc(C)n(CC(=O)n2c3ccccc3c3ccccc32)n1	1.3%	-2.0	-5.3	-1.4	-41.8	Arbovirus inh repeat=-5.0
CCc1cc2c(=O)c(-c3ccc4c(c3)OCCO4)coc2cc1OC(=O)c1ccco1	-11.4%	11.8	5.6	4.3	2.9

Other results:
SMILES	Mtb H37Rv	Mtb bLac sens	Arbovirus inh	RecA intein inh	YopH inh	others
CCCCNC(=O)c1ccc(CS(=O)(=O)c2ccc(OC)cc2)o1	-3.4%	-11.3	3.6	-0.5	-47.8	Arbovirus inh repeat=1.9
CC1CCCCN1c1nc2nonc2nc1N1CCCCC1C (centres undefined)	-0.1%	1.0	-1.0	5.1	-20.2
COC(=O)c1cc(=O)n(C2CC2)c(=NC2CC2)s1	-10.8%	-4.0	11.7	-9.4	-39.0
O=C(O)CCn1cc(/C=C2\SC(=S)NC2=O)c(-c2ccccc2)n1	0.7%	-2.4	4.0	0.8	·
COc1ccc(NC(=O)Nc2ccc(OC)c(OC)c2)c([N+](=O)[O-])c1	1.5%	8.6	-4.9	0.4	-28.6
COc1ccc(-c2cc3ccccc3oc2=O)cc1NC(=O)c1cccnc1	-2.5%	0.9	-4.0	-3.1	-35.2
CC(=O)Nc1ccc(C(=O)NC(C)c2ccc(-n3ccnc3)cc2)cc1 (centres undefined)	·	?	·	1.8	·
COc1ccc2cc(CCNC(=O)c3ccc(Br)o3)c(=O)[nH]c2c1	1.4%	-5.3	-2.1	1.6	-16.7	Arbovirus inh repeat=-1.6
Cc1cc(NC(=O)c2cccc(S(=O)(=O)N3CCOCC3)c2)c2ccccc2n1	6.0%	-4.2	5.4	2.6	-29.1
O=C1c2ccccc2NC2CCCCC12 (centres undefined)	-0.2%	8.2	5.2	-0.5	-41.2
Cc1ccc(C(=O)CC2(O)C(=O)Nc3ccccc32)s1 (centres undefined)	-4.6%	3.0	-3.3	-0.7	-24.1
O=C(Cn1c(-c2ccccc2)noc1=O)Nc1ccc(N2CCCCCC2)cc1	12.5%	16.6	-13.3	2.7	-49.3
CCOC(=O)c1c(C)[nH]c(C(=O)NCCc2ccc(OC)c(OC)c2)c1C	·	-1.5	·	-0.5	·
C=CCOc1ccc(C(=O)CC)cc1OC	1.6%	0.0	3.2	-0.1	-6.5
CN1CCCN(C(=O)c2cc(-c3ccc(Cl)c(Cl)c3Cl)nc3ccccc23)CC1	1.8%	1.1	-28.8	2.2	·
O=C(c1cccs1)N1CCN(c2nc3ccccc3s2)CC1	·	-1.2	·	-1.6	·
COC(=O)c1ccc(NC(=O)c2cc(Cl)ccc2OC)cc1	7.5%	3.6	-17.6	-3.1	·
CCc1cccc(NC(=O)CCNC(=O)Cn2ccc3ccccc3c2=O)c1	·	1.2	·	0.6	·
COc1ccccc1OCCn1c(C(C)O)nc2ccccc21 (centres undefined)	-12.9%	-1.5	2.8	-1.3	-52.2
Clc1ccc(CSc2nnc(-c3ccncc3)o2)cc1	10.7%	8.0	-28.9	0.8	-29.1
COc1ccc(N(CC(=O)NC2CCCC2)C(=O)c2csnn2)cc1	-1.2%	-13.1	-0.1	0.0	32.3
Cc1ccc(NC(=S)NCc2ccc3[nH]c4c(c3c2)CCCC4)cc1	44.8%	22.3	-34.2	1.5	-14.9
O=C1/C(=C/c2cccnc2)SC(=S)N1CC1CCCO1 (centres undefined)	-1.0%	-0.8	1.8	21.6	·
COC(=O)c1ccc(OC(=O)c2ccco2)cc1	-4.9%	2.2	-5.7	·	-21.7
CC(=O)N1CCc2cc(S(=O)(=O)CCC(=O)N3CCN(c4cc(C)ccc4C)CC3)ccc21	·	7.6	·	0.7	·

A portion of the results above, as a working copy:
SMILES	Mtb H37Rv	Mtb bLac sens	Arbovirus inh	RecA intein inh	YopH inh	others
COC(=O)c1ccc(OC(=O)c2ccco2)cc1	-4.9%	2.2	-5.7	·	-21.7
CC(=O)N1CCc2cc(S(=O)(=O)CCC(=O)N3CCN(c4cc(C)ccc4C)CC3)ccc21	·	7.6	·	0.7	·

The listing continues:
SMILES	Mtb H37Rv	Mtb bLac sens	Arbovirus inh	RecA intein inh	YopH inh	others
O=S(=O)(Cc1ccccc1)NCCc1cccc(Cl)c1	·	2.8	·	2.5	·
CCn1nnc(NC(=O)c2cc3ccccc3o2)n1	-2.2%	-8.2	-5.5	2.8	-17.2
CCc1cc(=O)oc2c(C)c(OC(C)C(=O)NCC3CCC(C(=O)O)CC3)ccc12 (centres undefined)	·	1.9	·	9.0	·
COc1cc(C2NC(=O)NC(C)=C2C(=O)OC(C)(C)C)ccc1OCC(=O)O (centres undefined)	-1.5%	1.1	10.7	-1.3	-7.2
COc1ccc(NC(=O)Nc2c(C)noc2-c2ccccc2)cc1	-10.9%	-7.4	·	-2.7	·
CC1CCCN(c2ncnc3c2cnn3-c2ccccc2)C1 (centres undefined)	14.4%	3.0	2.9	-0.2	·	Arbovirus inh repeat=4.7
COc1ccc(C2SCC(=O)N2c2ccccc2)cc1 (centres undefined)	·	3.9	·	0.8	·
CCC(=O)N1CCN(c2ccc(Cl)cc2NC(=S)NC(=O)c2ccco2)CC1	·	3.7	·	-0.6	·
COc1ccc(-n2ncc3c2CC(C)(C)CC3NC(=O)Cc2nonc2C)cc1 (centres undefined)	·	3.1	·	1.9	·
Cc1cc(NS(=O)(=O)c2ccc(Nc3nc(-c4ccc(O)cc4)cs3)cc2)no1	54.9%	5.4	-5.2	0.5	-22.1
CC(C)c1onc(C(=O)N2CCC(C(N)=O)CC2)c1[N+](=O)[O-]	-1.1%	-0.6	·	-0.2	·
O=S1(=O)C=C(SCc2ccccc2)Nc2ccccc21	-4.6%	2.5	9.8	0.5	-18.0
CC1CCN(c2ccc3nnc(CCC(=O)Nc4ccc(F)c(F)c4)n3n2)CC1	·	0.7	·	-3.3	·
CCOc1ccc(NC(=O)NCc2cccnc2)cc1	-0.5%	-5.3	5.8	-1.5	·
COc1ccc(C(=O)O)cc1NC(=S)NC(=O)c1ccc(-c2ccc(Cl)cc2)o1	?	·	50.4*	-2.0	·
COc1ccc(-c2csc(/C(C#N)=C\c3ccc(O)c([N+](=O)[O-])c3)n2)cc1OC	73.4%	96.2	·	1.9	·
CCN1C(=S)N[C@@H](c2cccc(F)c2)C(C(=O)OC)=C1C	·	-1.6	·	1.7	·
O=C(/C=N/O)Nc1ccccc1C(=O)O	-4.2%	-1.4	-1.3	·	-12.0	Arbovirus inh repeat=18.4
CC(C)Oc1ccc(C(=O)N(CN2CCCC2=O)c2ccc(F)cc2)cc1	0.9%	-9.4	0.8	0.8	-16.1
Cc1ccc2[nH]c(C(=O)N3CCN(c4cccc(Cl)c4)CC3)cc2c1	·	0.6	·	-0.3	·
COc1ccc(CC(=O)NCCCSc2ccccc2)cc1OC	·	5.0	·	4.6	·
Cc1ccc(NC(=S)N(C)C(c2ccccc2)c2ccccc2)cc1C	·	4.7	·	16.6	·
Cc1cc2n(n1)C(c1cccs1)Nc1ccccc1-2 (centres undefined)	7.5%	-2.8	0.6	1.7	9.4
CC(=O)N1CCc2cc(S(=O)(=O)N3CCOCC3)ccc21	5.0%	-5.4	4.8	-1.1	-5.9
Cc1ccccc1NC(=O)NCCc1c[nH]c2ccccc12	-4.2%	1.6	-5.0	1.3	·
Next part
SMILES	Mtb H37Rv	Mtb bLac sens	Arbovirus inh	RecA intein inh	YopH inh	others
Oc1ccccc1-c1nc2cnccn2c1Nc1ccc2c(c1)OCCO2	1.6%	11.3	-10.3	-2.1	-43.9
CCOC(=O)N1CCN(Cc2nc3ccc([N+](=O)[O-])cc3c(=O)n2-c2ccccc2F)CC1	·	-1.7	·	1.8	·
CCS(=O)(=O)Nc1ccc(C(=O)CC2(O)C(=O)Nc3ccc(Br)cc32)cc1 (centres undefined)	6.4%	-7.6	-2.1	2.2	-52.1
CCOC(=O)c1cccnc1SCC(=O)N(C)c1ccccc1	3.2%	-3.1	-3.5	-1.0	-59.9
CCOc1ccc(C(O)C(CN2CCOCC2)c2ccccc2)cc1 (centres undefined)	-1.8%	-1.0	2.1	-0.6	-48.8
Cc1nnc(SCc2cccc([N+](=O)[O-])c2)s1	6.7%	-1.7	4.2	0.7	·
CCOc1ccc(C(=O)C[n+]2ccc(C(=O)NCCO)cc2)cc1	·	-7.8	·	7.9	·
O=C1Nc2ccccc2C1C(C[N+](=O)[O-])c1ccccn1 (centres undefined)	·	4.4	·	-1.6	·
COc1ccc(CCn2c(C)cc(C(=O)CSc3nnnn3C)c2C)cc1	-1.5%	-14.8	3.9	-0.2	0.5
O=C1c2ccccc2-c2nc3ccccc3n21	3.7%	1.8&2.2	4.3	-3.5&-0.8	-15.6
Cc1nnc(SCc2cc(=O)n3[nH]cnc3n2)s1	-6.8%	-8.0	2.4	·	-13.8
COc1ccc(CC(=O)Nc2ccc(N3CCN(c4ccc(OC)cc4)CC3)c(C#N)c2)cc1	3.1%	16.6	0.6	-2.8	-30.4
Cc1ccc(-n2c(Cc3cccn3C)nnc2SCC(N)=O)cc1	-5.0%	·	2.9	0.9	-51.8
COc1ccccc1N(CCN1C(=O)c2cccc3cccc(c23)C1=O)C(=O)c1ccncc1	-0.1%	-2.7	-1.0	1.5	·
C/C(CC(=O)NCc1ccc(F)cc1)=N\NC(N)=S	0.1%	97.8	18.2	-4.5	·

Screening results from PubChem.
